Screening data deposited in PubChem BioAssay by National Center for Advancing Translational Sciences (NCATS).
GLA inh pH 4.5: inhibitors of human alpha-galactosidase A at pH 4.5; P06280; purified enzyme, 4-MU-alpha-Gal fluorescence, pH 4.5; activity change, negative = inhibition, % at 105 µM; 230,000 tested, under 10 active; AID 1467; inconclusive = small, poorly fitted or top-dose-only inhibition, or a rising curve; inactive = flat fitted curve, though single readings scatter; no compound was filed as active;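 further: 0% = full activity with enzyme and -100% = basal without enzyme; dose as in the result columns while the protocol names 77 µM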
Rango dissoc inh: prevents RanGTP from dissociating the Rango-importin beta complex | actives 0.071% (n = 340,000) | Potency, µM (top dose mostly 46.1 µM), for the others: at the top dose activity change, negative = inhibition | Biochemical FRET Rango-importin beta, RanGTP-induced dissociation | AID 540253 | O95149+P62826; active means falling FRET ratio curve, often poorly fitted, with flat reads before Ran was added; inconclusive means other falling curves, or compound fluorescence or quenching; inactive means flat or rising ratio curve;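 further: potency means the concentration at half of the fitted maximal effect; % of control where 0% means no effect; nearly all actives have a fitted effect of over 45% in size; -100% = wells without RanGTP and RCC1; the record marks most hits as doubtful in a second field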
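Quantitative HTS using a FRET biosensor: 0.1 uM Rango, 0.25 uM importin beta, 0.6 uM Ran, 2 mM GTP, 0.2 uM RCC1 final, PBS with DTT, Tween-20 and BSA. Post-read taken 45 min after Ran addition.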
miR-21 reporter: miR-21 reporter, rising signal | HeLa miR-21 FLuc reporter, luciferase, 48 h | Potency, µM (highest dose often 38.3 µM), for inactives: at the top dose reporter change, positive = more light | 340,000 tested, under 10 active | AID 2288; active = well fitted rising curve with a large enough effect; inconclusive = small, poorly fitted or top-dose-only effect; inactive = no such curve, though single readings can be large or run the other way;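 further: % of control where 0% means no effect; miR-21 action dims this reporter so a rising signal means less miR-21 action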
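Luminescence from a firefly luciferase reporter carrying a miR-21 binding site downstream, stably expressed under a CMV promoter in HeLa cells that make miR-21 endogenously, reports miRNA modulation after 48 h compound exposure up to approximately 40uM final.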
Rango-impB inh: Rango-importin beta binding inhibition | Potency, µM (doses to about 92.2 µM), inactives show at the top dose inhibition of complex formation | Rango CFP/YFP FRET sensor + importin beta, 45 min | actives 0.031% (n = 340,000); active = rising FRET ratio curve, often small or poorly fitted; inconclusive = mostly compound fluorescence or quenching in the first reads; inactive = flat curves in all reads;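 further: potency means the concentration at half of the fitted maximal effect; 0% = DMSO wells and 100% = buffer wells lacking importin beta; nearly all actives have a fitted effect of over 15% in size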
Target sequence (Q14974 whole entry, looked up): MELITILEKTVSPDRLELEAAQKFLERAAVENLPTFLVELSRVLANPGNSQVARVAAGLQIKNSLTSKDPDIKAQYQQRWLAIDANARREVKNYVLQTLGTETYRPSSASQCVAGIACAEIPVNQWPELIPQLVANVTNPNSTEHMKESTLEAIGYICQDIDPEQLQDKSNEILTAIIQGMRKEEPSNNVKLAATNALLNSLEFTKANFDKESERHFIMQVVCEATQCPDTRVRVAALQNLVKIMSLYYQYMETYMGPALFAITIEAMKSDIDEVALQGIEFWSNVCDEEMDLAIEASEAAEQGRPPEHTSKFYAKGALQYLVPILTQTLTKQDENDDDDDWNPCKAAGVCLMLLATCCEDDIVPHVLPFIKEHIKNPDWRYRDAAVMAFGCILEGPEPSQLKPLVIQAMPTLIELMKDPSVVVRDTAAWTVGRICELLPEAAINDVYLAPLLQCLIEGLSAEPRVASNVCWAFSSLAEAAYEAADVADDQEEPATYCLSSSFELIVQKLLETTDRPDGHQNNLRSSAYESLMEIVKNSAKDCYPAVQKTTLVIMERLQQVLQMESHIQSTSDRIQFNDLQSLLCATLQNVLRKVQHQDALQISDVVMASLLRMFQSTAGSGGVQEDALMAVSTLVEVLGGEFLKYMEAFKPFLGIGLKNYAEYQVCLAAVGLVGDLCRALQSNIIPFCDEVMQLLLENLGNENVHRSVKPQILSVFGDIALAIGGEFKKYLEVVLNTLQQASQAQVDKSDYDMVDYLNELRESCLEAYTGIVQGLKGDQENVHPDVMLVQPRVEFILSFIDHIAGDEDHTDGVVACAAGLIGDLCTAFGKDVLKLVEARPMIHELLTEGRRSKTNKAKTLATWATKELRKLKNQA
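Inhibition scored from the CFP 486 nm/YFP 530 nm FRET ratio 45 min after adding 0.125 microM importin beta to 50 nM Rango biosensor preincubated 5 min with compound (room temperature, PBS with DTT, Tween-20, BSA). No-importin wells as positive control.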
* hit, by the source's call; ? = inconclusive; / = not tested or not shown; & = joins results of further samples. These rows are one share of the data. The share of hits here may be higher or lower than overall.

GLA inh pH 4.5	canonical_smiles	Rango dissoc inh	miR-21 reporter	Rango-impB inh
4	COC(=O)c1ccccc1NC(=O)c1c(Br)cnn1C	9%	-26%	1.6%
-1	O=C1N=c2ccccc2=C1c1sc(=S)n(CC2CCCO2)c1O (configuration not stated)	?	3%	4.0%
/	Cc1cccn2c(=O)c3cc(C(=O)NC4CCS(=O)(=O)C4)n(Cc4ccccc4)c3nc12 (configuration not stated)	?	1%	?
/	CC(C)NC(=O)c1nc2c(nnn2Cc2cccc(Cl)c2)c(=O)[nH]1	-5%	-7%	-1.8%
/	CCOc1ccc(S(=O)(=O)N2CN3CCN(C3)C2)cc1	-4%	-3%	2.9%
0	CCCOc1cc(C)c(S(=O)(=O)N2CCOCC2)cc1C	/	-8%	/
1	O=C(Cc1n[nH]c(=O)[nH]c1=O)N/N=C/c1c(O)ccc2ccccc12	-19%	4%	?
-1	O=C(NCCc1ccccn1)c1cc(-c2ccc(Cl)cc2)nc2ccccc12	1%	15%	-0.7%
1	Cc1nn2cc(-c3ncc(C(F)(F)F)cc3Cl)cnc2c1Br	24%	-51%	1.0%
/	COc1ccc(C(C)=O)cc1COC(=O)CNC(=O)C1CCCCC1	2%	/	0.3%
1	COc1ccc(C2CC(=O)C3=C(C2)Nc2ccccc2NC3c2coc3ccccc3c2=O)cc1OC (configuration not stated)	?	-12%	-0.2%
/	Cc1ccc(S(=O)(=O)NCCN2CCOCC2)c(C)c1	14%	-1%	1.3%

Taken from above:
In GLA inh pH 4.5, `O=C(Cc1n[nH]c(=O)[nH]c1=O)N/N=C/c1c(O)ccc2ccccc12` shows 1
In miR-21 reporter, `Cc1cccn2c(=O)c3cc(C(=O)NC4CCS(=O)(=O)C4)n(Cc4ccccc4)c3nc12` (configuration not stated) shows 1%
In Rango-impB inh, `CC(C)NC(=O)c1nc2c(nnn2Cc2cccc(Cl)c2)c(=O)[nH]1` shows -1.8%
In Rango dissoc inh, `COC(=O)c1ccccc1NC(=O)c1c(Br)cnn1C` shows 9%

Further structures:
GLA inh pH 4.5	canonical_smiles	Rango dissoc inh	miR-21 reporter	Rango-impB inh
-5	Cc1ccc(NS(=O)(=O)N(C)C)cc1	7%	0%	1.5%
/	Cc1cc(C)n2nc(CNS(=O)(=O)c3cccc([N+](=O)[O-])c3)nc2n1	-7%	0%	0.0%
/	CCn1c(C)c(C)c2cc(C(=O)N3CCCC3)ccc21	-2%	-24%	?
0	Cn1c(=O)c2c(-c3ccccc3F)c3c(nc2n(C)c1=O)-c1ccccc1C3O (configuration not stated)	-5%	-3%	-1.6%
-13	Clc1ccc(OCCCNCc2ccccc2)c(Br)c1	-5%	-14%	0.7%
/	COC(=O)[C@H](C)N(Cc1ccc(Cl)c(Cl)c1)S(=O)(=O)CCN1CCN(c2ccccc2)CC1	-4%	/	?
2	O=C(N/N=C/c1cccnc1)c1ccc([N+](=O)[O-])cc1Cl	1%	6%	-6.4%
-4	C=CCn1c(SCn2nnc3ccccc3c2=O)nnc1-c1ccc(Cl)cc1	0%	-24%	0.6%
14	O=c1[nH]c2ccccc2nc1-c1ccccc1	12%	-54%	0.0%
9	COc1ccc(OC)c(NC(=O)c2c(NC(=O)CNCc3ccco3)sc3c2CCC3)c1	30%	-3%	0.0%
/	COc1ccc(OCc2cc(C(=O)N3CCC(OC)CC3)no2)c2ccccc12	0%	-49%	-2.8%
3	COc1ccc(OC)c(NC(=O)CN2CCN(C(=O)c3ccco3)CC2)c1	11%	-7%	-3.5%
/	COc1ccc(CCNC(=O)CCc2cn(C)c3ccccc23)c(OC)c1	7%	-11%	-1.6%
3	Cc1cc(=O)n2c3ccccc3n(CC(O)CN3CCN(Cc4ccccc4)CC3)c2c1C#N (configuration not stated)	0%	-1%	-0.9%
-12	COc1ccc(S(=O)(=O)NNC(=O)c2ccc(-n3c(C)ccc3C)cc2)cc1	13%	-1%	-1.5%
/	COCCn1c(SCC(=O)NC(C)c2ccccc2)nc2ccccc21 (configuration not stated)	13%	7%	-1.5%
/	NS(=O)(=O)c1ccc(Nc2nc(-c3cccnc3)cs2)cc1	6%	6%	-0.2%
-5	Cn1ccnc1SCC(=O)Nc1ccc(F)c([N+](=O)[O-])c1	12%	0%	0.2%
/	CCOC(=O)C1CCN(C(=O)CN(c2ccc3c(c2)OCCO3)S(=O)(=O)c2ccccc2)CC1	-8%	/	0.2%
/	Cn1cccc1C(=O)NC(=O)COC(=O)CCNS(=O)(=O)c1cccc(C(F)(F)F)c1	5%	/	2.1%
/	Cc1ccc(CNS(=O)(=O)c2ccc(C)s2)cc1	6%	-8%	-4.8%
8	CCOc1ccc(/C(O)=C2/C(=O)C(=O)N(CCCn3ccnc3)C2c2cccs2)cc1Cl (configuration not stated)	11%	-34%	4.2%
-3	COc1cccc(N2CCN(C(=O)c3ccc(N4C(=O)NC5CC4(C)Oc4ccccc45)cc3)CC2)c1 (configuration not stated)	-1%	1%	-1.9%
5	Cc1cc2oc(C(=O)N(Cc3ccco3)C3CCS(=O)(=O)C3)cc(=O)c2cc1Cl (configuration not stated)	27%	-8%	-2.0%
/	CCc1ccc(CN(C)C(=O)c2cc(S(=O)(=O)N3CCN(CC)CC3)ccc2Cl)cc1	-7%	/	-4.2%
1	O=S(=O)(NCCc1cn2ccccc2n1)c1cccs1	9%	-28%	1.4%
-9	O=C(CSc1nnnn1-c1ccc(Cl)cc1)Nc1cccnc1Cl	0%	-3%	-3.9%
-4	Cc1ccc(CNC(=O)CSc2c3c(nc4ccc(Cl)cc24)CCCC3)o1	-4%	5%	-1.5%
10	COc1ccc(-c2cc(C(F)(F)F)c(C#N)c(SCC(=O)Nc3ccc(C)cc3)n2)cc1	-4%	-7%	-6.5%
/	CN(CC(=O)Nc1ccccc1Cl)C(=O)CN1C(=O)C2CCCCC2C1=O (configuration not stated)	3%	/	3.6%
-6	COC(=O)C1=C(CSc2nncn2C)NC(=O)NC1c1cc(C)ccc1C (configuration not stated)	-28%	-2%	?
-1	CCC(C)OC(=O)c1[nH]c2c(c1C)C(=O)CC(c1ccc(N(C)C)cc1)C2 (configuration not stated)	?	-3%	-0.9%
10	O=C(c1cc2ccccc2o1)N1CCC(N2CCC(C(=O)N3CCCC3)CC2)CC1	6%	-10%	-1.1%
-5	NC(=O)c1ccc(-n2nnnc2SCc2ccccc2)cc1	-4%	-23%	-2.5%
3	Cc1cc(C(=O)OCC(=O)NC2CCS(=O)(=O)C2)c(C)n1-c1ccccc1 (configuration not stated)	8%	9%	0.8%
1	CC1CCc2nc(NC(=O)C3COc4ccccc4O3)sc2C1 (configuration not stated)	-11%	10%	0.4%
-5	NS(=O)(=O)c1ccc(NC(=O)/C=C/c2ccccc2[N+](=O)[O-])cc1	-1%	1%	-4.0%
-1	COc1ccc(C(=O)Nc2ccc(SC(F)F)cc2)cc1	0%	-54%	0.3%
6	COc1cc(OC)cc(-n2nnnc2SCC(=O)NCc2cccs2)c1	9%	6%	0.4%
6	CC(C)(C)NC(=O)Nc1cccc(Cl)c1Cl	2%	2%	-2.0%
4	O=C(Nc1ccc(F)cc1)Nc1nnc(-c2ccco2)s1	-13%	-45%	-0.4%
1	Cc1cccc(NC(=O)CSc2nc(N)c(NC(=O)c3cccs3)c(=O)[nH]2)c1	11%	-2%	0.0%
3	CC(O)CNc1nc2c(c(=O)n(C)c(=O)n2C)n1C/C=C/c1ccccc1 (configuration not stated)	0%	14%	2.3%
-1	Brc1ccc(-c2nn[nH]n2)cc1	-15%	-13%	-0.6%
2	CCOC(=O)NCc1ccc(S(=O)(=O)Nc2ccccc2C)cc1	5%	0%	-0.5%
-17	O=C(O)c1cc2c(o1)CCC/C2=N\O	2%	2%	1.4%
/	CCc1nc(N2CCN(C(C)=O)CC2)c2c3c(sc2n1)CCCC3	6%	0%	-0.2%
0	Cn1c(=O)n(-c2ccccc2)c(=O)c2c3c(sc21)COC(C)(C)C3	4%	0%	1.1%
-21	Cc1oc(-c2cccc3ccccc23)nc1CN1CCC[C@H]1CO	-5%	-8%	-1.7%
/	CC(=O)c1ccc(N2CCN(C(=O)c3ccc4c(c3)OCO4)CC2)cc1	-4%	-9%	0.2%
-6	O=C(NCc1ccc2c(c1)OCO2)c1cc2c(s1)CSC2	1%	-18%	4.8%
/	O=C(CCc1c[nH]c2ccccc12)N1CCN(S(=O)(=O)c2ccc(F)cc2)CC1	5%	/	-1.2%
-3	CC(C(=O)N1CCCc2ccccc21)N1CCN(c2ccccn2)CC1 (configuration not stated)	10%	0%	0.7%
/	Cc1ccc(S(=O)(=O)N2CCC[C@H]2C(=O)NCc2ccccc2Cl)cc1	-5%	/	-1.4%
4	COc1ccc(C(=O)NCCCN2CCOCC2)cc1S(=O)(=O)N1CCCc2ccccc21	-4%	2%	-2.8%
0	COc1cc2c(cc1OC)CN(Cc1cc(=O)oc3c(C)c(C)ccc13)CC2	-12%	-18%	?
3	COc1cc(C(=O)NCCc2nc3ccccc3n2C)cc(OC)c1OC	-4%	-5%	0.5%
-18	c1ccc(Nc2cccc(Nc3ccccc3)n2)cc1	-8%	-42%	2.4%
/	CC(C)(O)C(=O)N/N=C\c1ccc(OC/C=C/c2ccccc2)cc1	-1%	-37%	-1.3%
/	COc1ccc(/C=C/C(=O)c2ccc(C(=O)/C=C/c3ccc(OC)c(OC)c3)cc2)cc1OC	?	21%	?

Reprinted at random: 6 records from the list, in no set order.
GLA inh pH 4.5	canonical_smiles	Rango dissoc inh	miR-21 reporter	Rango-impB inh
/	Cc1ccc(CNS(=O)(=O)c2ccc(C)s2)cc1	6%	-8%	-4.8%
6	COc1cc(OC)cc(-n2nnnc2SCC(=O)NCc2cccs2)c1	9%	6%	0.4%
/	CC(=O)c1ccc(N2CCN(C(=O)c3ccc4c(c3)OCO4)CC2)cc1	-4%	-9%	0.2%
1	CC1CCc2nc(NC(=O)C3COc4ccccc4O3)sc2C1 (configuration not stated)	-11%	10%	0.4%
/	CCc1nc(N2CCN(C(C)=O)CC2)c2c3c(sc2n1)CCCC3	6%	0%	-0.2%
/	COCCn1c(SCC(=O)NC(C)c2ccccc2)nc2ccccc21 (configuration not stated)	13%	7%	-1.5%

Following part
GLA inh pH 4.5	canonical_smiles	Rango dissoc inh	miR-21 reporter	Rango-impB inh
6	CCN(CC)S(=O)(=O)C1CCS(=O)(=O)C1 (configuration not stated)	-1%	-1%	-0.7%
6	Cc1cccc(C(=O)N2CCC(c3nc4ccccc4s3)CC2)c1	1%	0%	-0.2%
/	Cc1c(NC(=O)COC(=O)c2ccc(Cl)nc2)c(=O)n(-c2ccccc2)n1C	-2%	/	7.6%
-2	Cn1c(C(C#N)/C(=N\S(=O)(=O)c2cccs2)c2ccccc2)nc2ccccc21 (configuration not stated)	0%	-4%	-0.1%
/	O=C(O)C1CCc2nc(NCc3ccccc3)nc(NCc3ccccc3)c2C1 (configuration not stated)	1%	/	-2.0%
-17	Clc1ccc(-c2c[n+](Cc3cccc(Cl)c3)c3n2CCC3)cc1	5%	?	-0.9%
/	O=c1c2ccccc2nc(-c2ccc(Cl)cc2)n1C1CCS(=O)(=O)C1 (configuration not stated)	-13%	/	0.4%
-1	CCC(c1nnnn1C1CCCCC1)N1CCN(C2CCCC2)CC1 (configuration not stated)	-3%	3%	-1.9%
/	Cc1cccc(C)c1NC(=O)CNC(=O)Cn1nc(C)c(C)c(C#N)c1=O	-5%	/	-3.2%
/	COCCCn1c(SCC(=O)NC2CCCC2)nnc1-c1ccccc1	-17%	-4%	-1.9%
-4	Cc1c(C(=O)N/N=C/C(C)C)[nH]c2ccc([N+](=O)[O-])cc12	-5%	12%	-0.3%
/	C[C@H](CCC(=O)O)[C@H]1CC[C@H]2[C@@H]3[C@H](O)C[C@@H]4C[C@H](O)CC[C@]4(C)[C@H]3C[C@H](O)[C@]12C	12%&20%&-14%	0%	0.0%&8.2%&4.8%
0	COCCNS(=O)(=O)c1cccc2cccnc12	-3%	1%	0.1%
/	Cc1ccccc1-c1nc2c(s1)CCc1onc(-c3ccc(Cl)cc3)c1-2	-7%	/	0.0%
-7	CCC(C)(C)NC(=O)C(c1ccccn1)N(C(=O)c1csnn1)c1ccc(C)c(C)c1 (configuration not stated)	-15%	-6%	5.0%
/	NS(=O)(=O)c1ccc(CCNC(=O)COC(=O)CCc2c[nH]c3ccccc23)cc1	0%	/	-1.4%
?	CCN(CCO)Cc1csc2ccc(Br)cc12	12%	4%	-0.9%
